WNV protease inh – blocks West Nile virus NS2B-NS3 protease activity; z-score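 (tested at a level between 10 and 100 µM)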; AID 577; WNV NS2B-NS3 protease, fluorogenic substrate Ex360/Em465; active compounds read low; actives 0.18% (n = 65,000); P06935;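 active = z-score at -3 or under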;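 also: score is relative to mean and spread of the compound wells of a plate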
Target sequence (P06935 1371-1501 limits assumed): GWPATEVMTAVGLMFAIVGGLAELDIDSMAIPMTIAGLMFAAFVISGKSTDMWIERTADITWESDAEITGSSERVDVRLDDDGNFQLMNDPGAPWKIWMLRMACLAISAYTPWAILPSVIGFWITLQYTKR
Target sequence (P06935 1502-1679 limits assumed): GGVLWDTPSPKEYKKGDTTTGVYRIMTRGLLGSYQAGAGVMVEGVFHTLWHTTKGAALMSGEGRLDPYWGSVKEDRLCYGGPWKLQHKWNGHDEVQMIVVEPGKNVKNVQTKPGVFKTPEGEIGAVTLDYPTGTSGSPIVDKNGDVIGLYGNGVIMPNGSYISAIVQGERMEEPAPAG
MT1-MMP reporter – inhibitors of MT1-MMP promoter transcription, cell-based, luciferase reporter, luminescence (AID 618); MT1-MMP promoter luciferase reporter cells, luminescence; calls from a first round at 10 µM; hits with a dose series show EC50 in µM; actives 0.62% (n = 87,000);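 active = over half of the reporter light lost at 10 µM or EC50 under 50 µM; inactive = the rest and hits that failed the dose series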;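 also: actives suppress MT1-MMP promoter-driven transcription so potencies describe inhibitors; HT1080 fibrosarcoma cells; overnight exposure; toxic or luciferase-blocking compounds were not removed from the actives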
Hsc70 – Hsc70 inhibitors, probe displacement, primary screen, biochemical, fluorescence polarization (AID 568) | displacement, % at 20 µM; hits with a dose series show IC50 in µM | Hsc70 fluorescence polarization, probe displacement; higher % means a stronger effect; strong numbers were not always called active | 83,000 tested, under 10 active;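 active = displacement above 50% without optical interference and an IC50 on retest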;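 also: ATPase domain with a fluorescein-tagged ATP probe; 0% = vehicle and 100% = excess ADP; read after one hour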
Active calls of the source: *; i = inactive; · = not tested or not shown.

Every second line gives: WNV protease inh	MT1-MMP reporter	Hsc70
Cn1c(=O)oc2cc(S(=O)(=O)NCCC(=O)NC3CCCC3)ccc21
  -0.95	i	-7.1%
COc1cc(/C=C2\C(=O)N(CCC#N)N=C2C)c(Br)cc1OC(C)C
  ·	i	-0.5%
CCOC(=O)N1CCN(C(=O)c2ccc(NS(C)(=O)=O)cc2)CC1
  -0.68	i	4.0%
COC(=O)C1C(=O)C2=C(CC1C)NC(C)=C(C(=O)OCc1ccc(OC)cc1)C2c1ccc(C)o1 (stereo not given)
  0.82	i	-8.5%
COc1ccc(N2CCN(C(=O)CN(CCc3ccccc3)S(C)(=O)=O)CC2)cc1
  ·	i	-0.9%
C[C@H](N)c1nnc(SCc2c(Cl)cccc2Cl)o1
  ·	i	4.1%
O=C(CSc1nnc(-c2ccccc2Br)o1)N1CCc2ccccc2C1
  1.3	i	-1.7%
Cc1ccc(NC(=O)Cn2cccc2)c(Br)c1
  -0.46	i	-3.5%
CCOC(=O)c1nn(-c2cc(C(=O)OC)cc(C(=O)OC)c2)cc1O
  0.32	i	7.8%
CC(=O)c1ccc(OCC(O)CN2CCN(CCO)CC2)cc1 (stereo not given)
  0.67	i	1.2%
CCC(NC(=O)Nc1nccs1)(C(F)(F)F)C(F)(F)F
  2.6	i	2.3%
COc1ccc(OC)c(C(=O)c2coc3ccc(OCC(=O)O)cc23)c1
  ·	i	2.2%
COc1ccc(-c2nc(C#N)c(NCC3CCCO3)o2)cc1OC (stereo not given)
  0.16	i	-5.5%
COc1cc(-c2nnc(SCC(=O)c3ccc(C)cc3)o2)cc(OC)c1OC
  0.57	i	-4.1%
COc1cccc(C2CC(c3ccccc3Cl)n3nc(N)nc3N2)c1 (stereo not given)
  0.21	i	-5.6%
C=CCc1cc(C(=O)N2CCCCC2)ccc1O
  0.66	i	-1.5%
CC1=C(C#N)C(c2cccnc2)C2=C(CC(c3ccc(Cl)cc3)CC2=O)N1 (stereo not given)
  ·	i	5.7%
CCOC(=O)N1CCN(C(=O)c2sc3nc(-c4ccc(F)cc4)cn3c2C)CC1
  -0.42	i	-5.4%
COc1ccc(OCc2nnc(SCC(N)=O)n2-c2ccccc2OC)cc1
  -0.52	i	-4.2%
CCCCn1c(-c2ccoc2C)n[nH]c1=S
  ·	i	-0.4%
COC(=O)C(CC(C)C)NC(=O)c1ccc(F)cc1 (stereo not given)
  -0.49	i	6.9%
COc1ccc(NC2=Nc3ccccc3CC2)cc1
  0.0096	i	-3.7%
O=C(C1CCN(S(=O)(=O)c2cccc3cccnc23)CC1)N1CCN(Cc2ccccc2)CC1
  -1.6	i	5.9%
Cn1c(=O)c2c(n(Cc3ccccc3)c1=O)NC(=O)C2CC(=O)O (stereo not given)
  ·	i	5.4%
CCCCNC(=O)NS(=O)(=O)c1ccc(C(=O)OC)o1
  -0.66	i	-2.7%
CN(C)S(=O)(=O)Nc1ccc2c(c1)Cc1ccccc1-2
  -0.21	i	-5.3%
CCOC(=O)c1cc2c(=O)n3cccc(C)c3nc2n(Cc2ccco2)c1=NC(=O)c1ccccc1
  ·	i	-3.4%
CC1CCCCC1NC(=O)c1ccc(S(=O)(=O)N2CCCC2)cc1 (stereo not given)
  ·	i	-0.7%
COc1ccc(OC)c(C2CC(=O)C3=C(C2)NC(=O)CC3c2ccc(O)c(OC)c2)c1 (stereo not given)
  -0.26	i	-2.0%
Cn1c(=O)c2c(nc(Oc3ccc4c(c3)OCO4)n2Cc2ccc(F)cc2)n(C)c1=O
  1.5	i	2.3%

Exported bar-delimited: five of the compounds above
compound | WNV protease inh | MT1-MMP reporter | Hsc70
COc1ccc(-c2nc(C#N)c(NCC3CCCO3)o2)cc1OC (stereo not given) | 0.16 | i | -5.5%
COc1cc(-c2nnc(SCC(=O)c3ccc(C)cc3)o2)cc(OC)c1OC | 0.57 | i | -4.1%
COc1cccc(C2CC(c3ccccc3Cl)n3nc(N)nc3N2)c1 (stereo not given) | 0.21 | i | -5.6%
C=CCc1cc(C(=O)N2CCCCC2)ccc1O | 0.66 | i | -1.5%
CC1=C(C#N)C(c2cccnc2)C2=C(CC(c3ccc(Cl)cc3)CC2=O)N1 (stereo not given) | · | i | 5.7%

Additional entries follow:
Every second line gives: WNV protease inh	MT1-MMP reporter	Hsc70
O=S(=O)(NCc1ccccc1)c1ccc(S(=O)(=O)N(Cc2ccccn2)C2CCCC2)cc1
  ·	i	7.4%
O=C(c1ccco1)N1CCN=C1SCc1ccc(F)cc1
  0.68	i	5.1%
COc1cccc(-c2nnc(SCC(=O)Nc3ccc(S(N)(=O)=O)cc3)n2C)c1
  -0.08	i	1.9%
CCOc1ccccc1OCC(=O)Nc1ccc(Cl)cc1Cl
  ·	i	-2.1%
CCC(=O)NCCc1nc2cc(NC(=O)c3ccccc3OC)ccc2n1C
  ·	i	6.0%
CC(C)CCNC(=O)NC(=O)COc1ncnc2sccc12
  -0.52	i	-2.6%
CN(C)C(=O)C1(c2ccccc2)CCN(S(=O)(=O)c2ccccc2)CC1
  2.3	i	4.8%
COc1cc(CN2CCC(C(=O)N3CCN(c4ccccc4F)CC3)CC2)ccc1O
  -0.54	i	-5.2%
Cc1cccc(N(Cc2ccccc2F)S(C)(=O)=O)c1
  -0.12	i	1.0%
Cc1ccccc1-n1nc(C)c2cc(C(=O)N3CCN(S(=O)(=O)c4ccccc4)CC3)sc21
  1.2	i	-9.4%
COc1ccccc1S(=O)(=O)Cc1ccc(C(=O)N2CCCC2)o1
  -0.3	i	0.9%
CCOC(=O)C1(CCC(C)C)CC(CSc2nc3ccccc3[nH]2)OC1=O (stereo not given)
  ·	i	2.3%
CCOC(=O)c1cnc(SC)nc1Sc1ccccc1
  ·	i	-4.3%
COc1ccc(/C=C/C(=O)Nc2c(C)nn(C)c2C)cc1COc1ccc(Cl)cc1Br
  ·	i	2.5%
CC(C)Oc1ccc(/C(O)=C2/C(=O)C(=O)N(CCCN3CCOCC3)C2c2ccncc2)cc1 (stereo not given)
  1.2	i	-3.4%
CN(CC(=O)O/N=C(\N)c1ccc([N+](=O)[O-])cc1)S(=O)(=O)c1ccc2ccccc2c1
  ·	i	1.3%
NC(=O)CSc1nnc(CNc2cccc(Cl)c2)n1CCc1ccccc1
  0.68	i	4.3%
CCOC(=O)c1cnc(SCCc2ccccc2)nc1N
  ·	i	1.7%
COCCCN1C(=O)c2[nH]nc(-c3ccccc3O)c2C1c1ccc(Cl)cc1 (stereo not given)
  0.9	i	-5.5%
CCOCCCNC(=O)C(c1ccc(Cl)cc1)N1CCN(c2ccccc2)CC1 (stereo not given)
  -0.8	i	-4.1%
Clc1ccc(CSc2nnc(CNc3cccc(Cl)c3)o2)cc1
  ·	i	9.0%
CCC(Oc1ccccc1)C(=O)Nc1ccc(S(=O)(=O)N2CCOCC2)cc1 (stereo not given)
  ·	i	4.5%
COc1ccc(-c2cc(C(F)(F)F)nc(N3CCN(c4ccccc4)CC3)n2)cc1OC
  0.01	i	12%
CC(c1cccnc1)N(C(=O)Nc1ccccc1)C1CCCCC1 (stereo not given)
  1.5	i	-0.9%
O=C(CSc1ccc(-c2ccccc2)nn1)NCc1ccco1
  ·	i	1.5%
CCOC(=O)c1ccc(NC(=O)Oc2ccccc2)cc1
  -0.19	i	-3.9%
COc1ccc2[nH]c(=O)c(C(c3nnnn3C3CCCC3)N(C)C3CCCCC3)cc2c1 (stereo not given)
  -0.29	i	-1.1%
CC(=NCCN1CCNCC1)C1=C(O)CC(C)(C)CC1=O
  -0.69	i	1.2%
CCOC(=O)C(C)Sc1nnc2n1C(C)(C)Cc1ccccc1-2 (stereo not given)
  0.99	i	3.4%
O=C(COC(=O)c1c2c(nc3ccccc13)CCCC2)Nc1ccc2c(c1)OCO2
  -1.4	i	-5.0%
COc1ccc(OCC(=O)Nc2ccc(N3CCOCC3)c(Cl)c2)cc1
  -0.84	i	-5.5%
Cc1ccc(NC(=O)Nc2ccc(F)cc2)nc1
  0.0062	i	5.9%
O=C(O)CSCCc1ccccn1
  -0.21	i	0.5%
Cc1ccc(S(=O)(=O)[N-]c2nc3ccccc3nc2-n2cc[n+](CCC(C)C)c2)cc1
  ·	i	5.3%
O=C(Nc1ccc2c(c1)nc1n2CCOC1)c1ccco1
  -0.18	i	-0.7%
Cc1cccn2c(=O)c3cc(C#N)c(=N)n(CCCN4CCOCC4)c3nc12
  ·	i	3.4%
CCC(=O)c1ccc(N2CCN(C(=O)c3ccc(Br)cc3)CC2)c(F)c1
  -0.47	i	4.7%
N#Cc1cc2c(=O)n3ccccc3nc2n(Cc2cccnc2)c1=N
  -0.45	i	21%
O=C(Cn1cnc2c(nnn2-c2ccc(F)cc2)c1=O)NCc1ccco1
  -0.09	i	-4.5%
Cc1ccc(C)n1-n1cnc2sc3c(c2c1=O)CCCCC3
  ·	i	-0.7%
C=CCn1c(N)c(C(=O)OC(C)(C)C)c2nc3ccccc3nc21
  2.9	i	0.9%
CCOC(=O)C(C)CC(C)C(=O)N1CCOCCN(C(=O)C(C)CC(C)C(=O)OCC)CCOCC1 (stereo not given)
  ·	i	0.7%
Cc1ccc(C(C)C)c(OCc2ccc(-c3nnco3)cc2)c1
  1.3	i	2.6%
O=C(NCCc1ccccc1)c1cnn2c(C(F)F)cc(C3CC3)nc12
  0.04	i	-3.3%
CCOc1ccc(N(CC(=O)NC2CCCC2)S(=O)(=O)c2c(C)noc2C)cc1
  -1.1	i	3.8%
Cn1c(Cn2c(=O)sc3ccccc32)nnc1SCC(=O)NCc1ccc(F)cc1
  -0.11	i	1.0%
O=C(Cc1c(F)cccc1Cl)N1CCN(C(=O)c2ccco2)CC1
  0.71	i	1.5%
C=CCc1ccccc1OCCCCN1CCCC1
  -0.05	i	-0.2%
COc1cc(Cl)c(C)cc1NC(=O)COc1cc(C)nc(C(C)C)n1
  1.7	i	-2.1%
N#CCSc1nc2ccccc2c(=O)n1CCC(=O)NCCc1ccccc1
  1.6	i	-2.0%
COc1cc(NC(=O)c2cc3nc(C)cc(C)n3n2)c(OC)cc1Cl
  -0.11	i	-7.2%
O=C1CC(c2ccco2)Cc2nc(NCC3CCCO3)ncc21 (stereo not given)
  -0.44	i	-3.8%
O=c1cc(/C=C/c2cccs2)[nH]c2ccccc12
  ·	i	-0.7%
C=CCOc1ccc(C2N3CC4(C)CN2CC(CCC)(C3)C4=O)cc1 (stereo not given)
  1	i	0.9%
O=C(Cc1ccc(S(=O)(=O)N2CCOCC2)s1)Nc1ccc2c(c1)CCC2
  0.08	i	1.7%
CC(C)Cc1cc(C(=O)O)n[nH]1
  0.1	i	-6.2%
CCn1c(CNc2nc(-c3ccccc3)cs2)nnc1SCC(=O)NCc1ccccc1
  ·	i	-20%
CC(C)OC(=O)CSc1nnc(-c2ccc(O)cc2)n1Cc1ccccc1
  -0.21	i	-4.7%
CCC(C)NC(=O)c1ccccc1NC(=O)COc1ccc(OC)cc1 (stereo not given)
  ·	i	1.6%
Cc1sc2nc(SCc3nnc(-c4cccs4)o3)n(C3CCCC3)c(=O)c2c1C
  -0.73	i	-5.6%

(more compounds)
Every second line gives: WNV protease inh	MT1-MMP reporter	Hsc70
Cc1ccc(SCc2[nH]nc3c2C(c2cccnc2)C(C#N)=C(N)O3)cc1 (stereo not given)
  0.82	i	0.5%
Cc1cc2c(c(=O)o1)C1(C(=O)N(C)c3ccccc31)C(C#N)=C(N)O2 (stereo not given)
  -0.19	i	0.3%
Cc1ccccc1-c1nc(CS(=O)(=O)CC(=O)NCCN2CCOCC2)c(C)o1
  -1.1	i	4.8%
O=C(c1cc2ccccc2o1)n1nnc2ccccc21
  -0.39	i	0.9%
CC(=O)NC1(c2ccccc2)CCN(C(=O)N2CCOCC2)CC1
  0.92	i	-0.1%
CCN1C(=S)SC(=O)C1=C1C=C(C)N(Cc2ccco2)C(C)=C1
  -0.51	i	-18%
CCCCNC(=O)C1CCN(C(=O)Nc2ccc(C)cc2)CC1
  ·	i	0.6%
CCc1ccccc1N(CC(=O)OC)S(C)(=O)=O
  -0.23	i	-4.2%
COc1ccc(-c2nc(CSCC(=O)N3CCN(C4CCCCC4)CC3)c(C)o2)cc1OC
  0.58	i	-3.2%
COC(=O)c1c(C)oc2ccc(OC(=O)c3cccs3)cc12
  1.8	i	91%
OC(COCc1ccc(Cl)cc1)CN1CCN(CC(O)COCc2ccc(Cl)cc2)CC1 (stereo not given)
  -0.16	i	0.9%
COC(=O)c1ccc(N2C(=O)CC(SCCN)C2=O)cc1 (stereo not given)
  -0.05	i	1.2%
O=P(Cc1cc[n+]([O-])cc1)(c1ccccc1)c1ccccc1
  ·	i	0.8%
Cc1ccc(-n2ncc3c(Nc4cccc(C(=O)O)c4)ncnc32)cc1
  ·	i	-0.4%
CN1CC=C2C(C#N)=C(N)C(C#N)(C#N)[C@H](c3ccoc3)[C@H]2C1
  ·	i	20%
COc1ccc(/C(O)=C2/C(=O)C(=O)N(CCCN(C)C)C2c2ccc(C)o2)cc1Cl (stereo not given)
  -1	i	0.6%
COc1ccc(-n2c(SC)nnc2-c2c[nH]c3ccccc23)cc1
  -0.21	i	1.3%
Cc1cc(N)c(NC2=CC(=O)CC(C)(C)C2)cc1C
  0.83	i	-5.0%

High-throughput results as filed in PubChem.
